Six1-Eya2 blk: qHTS Assay for Inhibitors of the Six1/Eya2 Interaction; Homeobox protein SIX1 (Homo sapiens) + Protein phosphatase EYA2 (Homo sapiens), …; AlphaScreen GST-Six1/His-Eya2 binding, biochemical; active compounds read low; control for the full effect not named in the record; activity change, % (concentration not given with the values); hit rate 0.56% among 360,000; AID 651725, 2012; in the data active = activity change below about -65%; inconclusive = about -30% to -65%; inactive = above about -30%; further: on the % scale 0 is the no-effect control and ±100 the full control effect
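Six1/Eya2 binding was read as AlphaScreen signal after compounds were pinned into GST-Six1 plus His-tagged Eya2 (5X stock 250/500 nM) in pH 8.0 Tris/NaCl/TCEP buffer, beads added, then incubated 1 h, 37 C, dark.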
TRPML1 ag: qHTS for Agonists of the Human Mucolipin Transient Receptor Potential 1 (TRPML1); Mucolipin-1 (Homo sapiens), Q9GZU1; TRPML1-expressing cells, Ca2+ dye fluorescence, FDSS; host cell line not named in the record; reference of the full effect not given here; activation, % (no concentration beside the values); hit rate 0.12% among 410,000; in the data active = activation above about 50%; inconclusive = about 30% to 50%; inactive = below about 30%; further: 0% is about no effect; the text of the record puts the active cut at 80%
Target sequence (Q9GZU1 whole entry, looked up): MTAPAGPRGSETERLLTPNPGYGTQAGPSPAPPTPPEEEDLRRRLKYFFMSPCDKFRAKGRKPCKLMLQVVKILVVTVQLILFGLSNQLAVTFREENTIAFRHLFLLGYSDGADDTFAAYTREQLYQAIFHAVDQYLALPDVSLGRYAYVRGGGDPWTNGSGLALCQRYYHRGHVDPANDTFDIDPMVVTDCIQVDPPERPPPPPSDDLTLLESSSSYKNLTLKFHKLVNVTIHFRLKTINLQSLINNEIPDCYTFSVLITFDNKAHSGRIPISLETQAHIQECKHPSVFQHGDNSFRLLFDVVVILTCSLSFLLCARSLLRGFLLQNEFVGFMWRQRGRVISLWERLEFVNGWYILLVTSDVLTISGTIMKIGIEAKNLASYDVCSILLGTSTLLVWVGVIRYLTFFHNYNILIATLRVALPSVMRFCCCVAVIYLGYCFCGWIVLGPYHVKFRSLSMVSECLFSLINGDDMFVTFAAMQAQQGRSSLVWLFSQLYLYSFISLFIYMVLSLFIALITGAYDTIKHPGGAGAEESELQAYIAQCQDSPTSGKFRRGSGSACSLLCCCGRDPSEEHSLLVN
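In this qHTS format, compounds were pin-transferred onto Ca8-dye-loaded TRPML1-DL cells induced with Tet overnight, and intracellular Ca2+ fluorescence was recorded kinetically for 110 s after a 10 s baseline. A subsequent 4uM final 54-4 (EC80) addition followed by a second 110 s read served as the antagonist phase.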
CtBP-E1A inh: qHTS Assay for Inhibitors of the CtBP/E1A Interaction | AlphaScreen GST-E1A/His-CtBP binding, 1536-well; active compounds read low; control for the full effect not named in the record | activity change, % (concentration not given with the values) | hit rate 0.49% among 340,000 | AID 651724, 2012; in the data active means activity change below about -65%; inconclusive means about -30% to -65%; inactive means above about -30%; further: on the % scale 0 is the no-effect control and ±100 the full control effect
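In 5 uL wells, 23 nL compound meets equimolar GST-E1A and His-CtBP (5X stock 125 nM each) for 2 h, 37 °C. Beads (5X, 50 ug/mL) then 1 h, 37 °C, dark.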
PINK1 modulator: A Quantitative High throughput Screen to Identify Chemical Modulators of PINK1 Expression; AID 624263, 2012; Potency, µM (top dose mostly 76.6 µM), for inactives: top-dose activation (PINK1 increase), actives largely listed as activators; PINK1 immunofluorescence, high-content cytometry, 24 h; hit rate 0.2% among 410,000; active = well fitted activation curve with a large enough effect; inconclusive = small, poorly fitted or top-dose-only effect; inactive = flat fitted curve, though single readings scatter; cell line not stated here;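 further: potency means the concentration at half of the fitted maximal effect; % of control where 0% means no effect; nearly all actives have a fitted effect of over 65% in size; a mitochondrial uncoupler was the plate control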
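PINK1 protein level read as immunofluorescence by microplate cytometer in a fixed, stained stable cell line after 24 h exposure to five compound concentrations, with CCCP as control.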
D2 PAM: Beta-Arrestin HTS for Positive Allosteric Modulators of the Human D2 Dopamine Receptor: Potentiators; AID 624464, 2012; hit rate 0.23% among 360,000; DiscoveRx D2 beta-arrestin cells, luminescence, 90 min; 100% = 57 uM dopamine signal; D(2) dopamine receptor (Homo sapiens), P14416; potentiation, % (concentration not given with the values); active = potentiation of 50% or more; inconclusive = 30% to 50%; inactive = 30% or less;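 further: compound concentration not given in the record; tested on top of an EC20 dose of dopamine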
Target sequence (P14416 whole entry, looked up): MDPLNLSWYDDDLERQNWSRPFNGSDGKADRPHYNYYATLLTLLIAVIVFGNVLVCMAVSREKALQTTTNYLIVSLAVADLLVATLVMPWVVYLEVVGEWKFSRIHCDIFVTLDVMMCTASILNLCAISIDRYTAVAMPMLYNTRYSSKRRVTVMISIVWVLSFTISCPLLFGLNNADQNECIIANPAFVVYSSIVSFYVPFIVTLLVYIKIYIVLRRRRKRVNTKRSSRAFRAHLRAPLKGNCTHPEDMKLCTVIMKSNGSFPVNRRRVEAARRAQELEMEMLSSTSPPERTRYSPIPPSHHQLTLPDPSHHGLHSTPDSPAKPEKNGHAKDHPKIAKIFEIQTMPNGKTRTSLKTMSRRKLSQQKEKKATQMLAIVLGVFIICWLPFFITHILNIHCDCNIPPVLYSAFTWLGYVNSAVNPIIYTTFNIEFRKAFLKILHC
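PathHunter beta-arrestin assay in DiscoveRx D2 cells. Compounds were added with an EC20 of dopamine (50 nM final) for 90 min at 37 deg C. Luminescence was read 1 h after detection reagent, with 57 uM dopamine as the EC100 control.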
D2 ag: Beta-Arrestin HTS for Positive Allosteric Modulators of the Human D2 Dopamine Receptor: Agonists | D(2) dopamine receptor (Homo sapiens), P14416 | DiscoveRx PathHunter D2 beta-arrestin, luminescence, 90 min; 100% = 57 uM dopamine signal | hit rate 0.084% among 360,000 | AID 624465, 2012 | activation, % (no concentration beside the values); in the data active = activation above about 40%; inconclusive = about 15% to 40%; inactive = below about 15%; further: compound concentration not given in the record; the text of the record calls up to 30% inactive
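DiscoveRx PathHunter D2 beta-arrestin cells (2,100/well) attached overnight, then compound-stimulated 90 min at 37 C in HBSS/10 mM HEPES/0.1% Tween-20 buffer; beta-galactosidase complementation read by luminescence after 1 h at ambient temperature. Dopamine 57 uM final (EC100) as control.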
* = called active by the depositor; ? = inconclusive; nt = no result given; [ ] = remark or other dose.

SMILES | Six1-Eya2 blk | TRPML1 ag | CtBP-E1A inh | PINK1 modulator | D2 PAM | D2 ag
CCc1nc2c(OCCn3cccc3)cccn2c1N(C)C(=O)c1ccccc1F | -11 | -1.0 | -11 | 2.4% | -4 | -2.5
CCn1nc(C)c(NS(=O)(=O)c2ccc(C)cc2)c1C | 1 | 0.6 | -23 | 2.6%[38.3 µM] | -12 | -1.3
COc1cc(/C=N/NC(=O)c2cc(-c3cccn3C)n[nH]2)cc(OC)c1OC | -67* | -0.6 | -75* | 1.8%[38.3 µM] | 0 | -3.6
CCOC(=O)c1sc(NC(=O)CCCn2nc([N+](=O)[O-])c(Cl)c2C)c(C(=O)OCC)c1C | 15 | 1.8 | -6 | 9.1% | -4 | -0.8
CN(Cc1cccc(C(F)(F)F)c1)C(=O)C1CCC(=O)N(CC2CCCCC2)C1 (stereo unspecified) | -16 | 0.8 | nt | 3.1% | -10 | -2.2
CCCc1nnc(NC(=O)c2oc3ccccc3c2COCC)s1 | -2 | 0.4 | 5 | 1.7% | 8 | 4.9
CN1CCN(C(=O)C2C3C=CC(C3)C2C(=O)O)CC1 (stereo unspecified) | -1 | -0.9 | 8 | 0.6% | 6 | -1.1
Cc1ccc(NCc2nnc(SCC(=O)NCCc3ccccc3)n2C)cc1 | -2 | -0.4 | -4 | 6.5% | -12 | -3.4
CC(=O)c1ccc(NC(=O)CCNC(=O)c2ccc(Cl)cc2)cc1 | -7 | nt | 0 | 2.3% | -13 | -6.6
Nc1c(C(=O)NCc2ccc3c(c2)OCO3)nnn1-c1ccc(OC(F)(F)F)cc1 | 0 | 0.1 | -14 | 8.4% | 3 | 0.4
CC1Cc2ccccc2N1C(=O)c1cc2sccc2n1Cc1ccc(F)cc1 (stereo unspecified) | -1 | 1.1 | 6 | 2.1% | -9 | -3.8
O=C(N/N=C/c1ccncc1)c1ccc(NC(=O)c2cccc(Cl)c2)cc1 | -9 | -0.1 | 1 | 2.2% | -2 | 5.7
CCCCC1CCC(C(=O)N(CCOC)c2c(N)n(CCCC)c(=O)[nH]c2=O)CC1 (stereo unspecified) | 4 | 0.2 | 4 | 6.9% | ? | -0.7
Cc1cc(C)cc(NC(=S)NCC2CCCO2)c1 (stereo unspecified) | 5 | -0.7 | -1 | 0.3% | -7 | -2.4
Cc1cc(C)nc(Nc2nc3ccccc3[nH]2)n1 | 1 | 0.4 | 7 | -1.3% | -1 | -2.0
C=CCSc1nc2c(c(=O)[nH]c(=O)n2C)n1CC | 7 | 1.2 | 5 | -1.7% | -6 | 0.6
N#Cc1cnn2c(-c3ccc(Cl)cc3Cl)ccnc12 | 8 | 1.6 | 0 | 0.0% | -11 | 2.9
Cc1c(C(=O)c2ccc(Cl)cc2Cl)cnc2cc3c(cc12)OCO3 | 3 | 5.8 | 0 | -1.5% | -4 | 1.7
O=C(O)C1C2C=CC(C3CC23)C1C(=O)NCCc1ccccc1 (stereo unspecified) | 0 | 1.1 | 4 | 0.3% | -11 | -1.0
O=C(CCN1CCCCC1=O)NC1CCCN(Cc2ccc(Cl)cc2)C1 (stereo unspecified) | -1 | 0.8 | 5 | -2.0% | 21 | -1.1
CCn1cc(CN2CCC(n3nccc3NC(=O)C3CCCC3)CC2)c(C)n1 | -1 | 0.8 | 3 | 2.5% | -8 | 1.0
O=C(OCc1nnc(-c2ccccc2)o1)c1ccc(Br)o1 | 9 | -0.4 | -5 | -0.5% | 0 | -3.2
COc1cccc(-c2c[nH]c(=O)[nH]c2=O)c1 | 16 | 0.4 | -11 | -1.5% | -23 | -3.2
CN(CC(=O)Nc1cccc(F)c1)C(=O)c1cc([N+](=O)[O-])ccc1N1CCOCC1 | -1 | 0.1 | 3 | 1.4% | -4 | -4.1
CCn1ncc([N+](=O)[O-])c1C(=O)Nc1cc(C)on1 | -2 | 0.4 | -1 | 0.2% | -5 | -1.3

Reprinted from the part before: 3 compounds; new compounds follow.
SMILES | Six1-Eya2 blk | TRPML1 ag | CtBP-E1A inh | PINK1 modulator | D2 PAM | D2 ag
COc1cccc(-c2c[nH]c(=O)[nH]c2=O)c1 | 16 | 0.4 | -11 | -1.5% | -23 | -3.2
CN(CC(=O)Nc1cccc(F)c1)C(=O)c1cc([N+](=O)[O-])ccc1N1CCOCC1 | -1 | 0.1 | 3 | 1.4% | -4 | -4.1
CCn1ncc([N+](=O)[O-])c1C(=O)Nc1cc(C)on1 | -2 | 0.4 | -1 | 0.2% | -5 | -1.3
NC(=O)c1ccc(Oc2cccc3cccnc23)c([N+](=O)[O-])c1 | ? | -0.3 | -23 | 16% | 15 | -3.9
Cc1occc1C(=O)NC(C)C(C)(C)C (stereo unspecified) | -1 | 0.4 | -13 | 1.0%[38.3 µM] | -10 | -2.2
CCOc1cccc2sc(N(CCCN(C)C)C(=O)c3ccc(S(=O)(=O)N(C)c4ccccc4)cc3)nc12 | -1 | 0.2 | nt | -0.1% | -11 | 0.2
COc1cccc(Nc2c(F)c(F)c(F)c(F)c2C(=O)O)c1 | 2 | -0.2 | 0 | -2.1% | -3 | -3.1
CCOC(=O)c1cc2sc(C)cc2n1CC(=O)Nc1cccc(C)c1C | 4 | 0.3 | 6 | nt | 6 | -1.5
O=C(COc1ccc(Br)cc1)NCCNC(=O)c1cccnc1 | 18 | -0.2 | -1 | 0.7% | -4 | -3.6
C/C(=N\NC(=O)CCn1nnc2ccccc21)c1cccs1 | -2 | 0.0 | 0 | 0.6% | -4 | 6.7
Cc1ccc(/C=C/C(=O)N(Cc2cccs2)C2CCS(=O)(=O)C2)cc1 (stereo unspecified) | 6 | 4.8 | 5 | -0.5% | -5 | -2.2
O=c1c2ccccc2nc(CSc2nnnn2-c2ccccc2)n1-c1ccccc1Cl | 0 | -0.1 | 4 | 3.4% | -1 | -3.1
COc1ccc(C(=O)NCCSc2ccccn2)cc1 | -26 | 0.3 | 2 | 0.4% | -8 | -2.1
CC(C)NC(=O)C1Cc2c(-c3ccccc3Oc3ccccc3)ccnc2O1 (stereo unspecified) | 8 | -0.7 | -26 | 4.2% | -4 | -2.0
CCOC(=O)c1c(-c2ccc(OC)cc2)oc2ccc(O)cc12 | 4 | -0.9 | 9 | 13% | -3 | 0.9
Cc1ccc(SCc2[nH]nc3c2C2(C(=O)N(C)c4ccccc42)C(C#N)=C(N)O3)cc1 (stereo unspecified) | -1 | -1.2 | 0 | 2.0% | -5 | 4.0
NS(=O)(=O)c1ccc(CCNC(=O)C2CCN(S(=O)(=O)c3ccc(Br)s3)CC2)cc1 | -4 | -0.1 | 0 | -0.5% | -1 | -1.7
O=C(Cn1cnc2c(cnn2-c2ccccc2)c1=O)NC1CCCC1 | -10 | -0.8 | 4 | 2.6% | -3 | 3.2
CCOc1ccc(C(=O)COC(=O)C2COc3ccccc3O2)cc1 (stereo unspecified) | 9 | 0.1 | 6 | 1.3% | -21 | -1.8
COc1ccc(NC(=O)COc2nsnc2N2CCCCC2)cc1 | -19 | 3.5 | -8 | 0.5%[38.3 µM] | 9 | 1.8
O=C(N/N=C/c1coc2ccccc2c1=O)c1cn(-c2ccccc2)nc1-c1ccc(F)cc1 | 5 | 1.1 | -2 | 4.3% | 1 | -1.1
CNc1ncnc2c1ncn2[C@H]1CN(Cc2ccc(F)cc2)C[C@@H](CO)O1 | 2 | -0.2 | 4 | -0.5% | 0 | 4.2
COc1ccc2c(c1)C(=O)N(CCc1ccc(S(=O)(=O)NC(=O)NC3CCCCC3)cc1)C(=O)C2(C)C | -5 | 1.6 | -1 | -0.2% | 1 | 5.8
COc1cccc(C2=NN(C(=O)c3ccco3)C(O)(C(F)(F)F)C2)c1 (stereo unspecified) | 5 | 2.1 | -24 | -1.8% | -2 | -1.0
Fc1ccc(CSc2ccc3nnc(-c4ccccn4)n3n2)cc1 | ? | 0.9 | ? | 0.0% | 2 | -0.3
CC(NC(=O)c1cccs1)c1ccc2c(c1)OCO2 (stereo unspecified) | 1 | -0.2 | -5 | 2.4%[38.3 µM] | -5 | -0.8
Cc1cccc(N(C)c2cc(-c3ccc(F)cc3)nc3ccnn23)c1 | 29 | -0.7 | 46 | 3.5% | -16 | -4.3
S=C(NCCC1=CCCCC1)Nc1ccc(Cl)cc1 | 7 | -0.9 | 0 | ? | -17 | -3.5

Records listed above shown as hits in Six1-Eya2 blk.
| SMILES | Six1-Eya2 blk | CtBP-E1A inh | PINK1 modulator | D2 PAM | D2 ag |
| --- | --- | --- | --- | --- | --- |
| COc1cc(/C=N/NC(=O)c2cc(-c3cccn3C)n[nH]2)cc(OC)c1OC | -67* | -75* | 1.8%[38.3 µM] | 0 | -3.6 |

By substructure, the entries above containing a cyano group.
SMILES | Six1-Eya2 blk | TRPML1 ag | CtBP-E1A inh | PINK1 modulator | D2 PAM | D2 ag
N#Cc1cnn2c(-c3ccc(Cl)cc3Cl)ccnc12 | 8 | 1.6 | 0 | 0.0% | -11 | 2.9
Cc1ccc(SCc2[nH]nc3c2C2(C(=O)N(C)c4ccccc42)C(C#N)=C(N)O3)cc1 (stereo unspecified) | -1 | -1.2 | 0 | 2.0% | -5 | 4.0

Carrying on:
SMILES | Six1-Eya2 blk | TRPML1 ag | CtBP-E1A inh | PINK1 modulator | D2 PAM | D2 ag
CCOc1ccc(C(=O)CCC(=O)NCC(=O)Nc2ccc(F)c(F)c2F)cc1 | 1 | -1.1 | 1 | 1.5% | -4 | -3.9
COc1ccccc1N1CCN(C2CC(=O)N(c3cccc(Cl)c3)C2=O)CC1 (stereo unspecified) | -6 | 1.1 | 7 | 3.9% | -4 | 1.8
COc1ccc(NC(=O)CN(C)CC(=O)NCc2ccc(C)cc2)cc1 | 5 | -0.3 | nt | 0.8% | -5 | -2.1
COc1ccc(OC)c(NC(=O)CNC(=O)Cn2c(C)cc3ccccc3c2=O)c1 | -1 | 0.7 | 7 | 0.5% | -5 | -3.6
O=C(CCC(=O)N1CCN(S(=O)(=O)c2ccccc2Cl)CC1)c1ccccc1 | 0 | 2.4 | 2 | -3.7% | 12 | 0.8
NNC(=O)COc1cccc(C(F)(F)F)c1 | 0 | -0.5 | 9 | 0.3% | -5 | 0.5
COc1ccc(C(=O)Nc2ccc(Cl)cc2C(=O)NCCN2CCOCC2)cc1 | -1 | 0.0 | 4 | 9.1% | -45 | 2.1
NS(=O)(=O)c1cccc(NC(=O)COC(=O)CCc2ccccc2)c1 | 5 | 0.0 | 5 | 0.3% | -2 | 2.2
CN(CCC#N)C(=O)COC(=O)c1ccccc1C(=O)c1ccc(Cl)c([N+](=O)[O-])c1 | 2 | -0.8 | -1 | -1.7% | -12 | -1.3
Fc1ccc(-c2cn3cc(C(F)(F)F)cc(Cl)c3n2)cc1 | 14 | 3.4 | 14 | -4.8% | 1 | 5.8
Cc1ccc(O)c(CNc2cnc3ccccc3c2)c1 | -13 | 0.9 | -7 | 7.6% | -1 | 1.9
COc1cc(OC)cc(C(=O)NCCc2cnc[nH]2)c1 | -11 | -0.6 | -1 | -0.8% | -46 | -3.8

Screens as filed in PubChem.
